# TRPV1 potentiator: enhances activation of the human vanilloid receptor TRPV1. AID 540277. Q8NER1. 0.02% of 320,000 active. TRPV1-expressing cells, Fluo-8 calcium influx, capsaicin EC20 potentiation; host cell line not named in the record; control for the full effect not named in the record. potentiation, % at 8.33 µM; active means potentiation above 80%; inconclusive means 30% to 80%; inactive means below 30%; note: 0% is about no effect
#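 Fluo-8 calcium influx in TRPV1-expressing cells, kinetic read (ex 480/em 520 nm). Compound added and read 3 min for agonist activity, followed by capsaicin at EC20 final and 2 min further read for enhancement.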
# Sfp inh: Sfp phosphopantetheinyl transferase inhibition; Potency, µM, without a hit: max response, negative = inhibition, usual class: inhibitors; 3.5% of 310,000 active; Biochemical Sfp PPTase activity, qHTS; active = well fitted inhibition curve with a large enough effect; inconclusive = small, poorly fitted or top-dose-only effect, or another doubt; inactive = no such curve, though single readings can be large or run the other way;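 note: the enzyme is Sfp with the accession as filed and its product quenches rhodamine fluorescence; potency is the fitted concentration of half-maximal effect; 0% = enzyme reaction without inhibitor and -100% = no enzyme wells; top concentration of the series not given in the record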
#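 Buffer: 50 mM Hepes-Na pH 7.6, 10 mM MgCl2, 0.01% Nonidet P-40, 0.01% BSA. Enzyme 15 nM, pre-exposed to compound 15 min; substrates then added and fluorescence change tracked over 30 min.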
# Menin-MLL FL inh: menin-MLL binding inhibition, fluorescein peptide | Fluorescence polarization, fluorescein-MLL peptide displacement from menin | FP activity change, % at 61.4 µM | 290,000 tested, under 10 active | AID 1766; inconclusive = falling polarisation curve, or a change in total fluorescence; inactive = total fluorescence flat and polarisation flat or rising; no compound was filed as active; the % refers to the polarisation; negative = inhibition;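 note: % of control where 0% means no effect; inhibitors lower the polarisation; unlabelled MLL peptide was the positive control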
# gsp antagonist: antagonists of gsp mutant (McCune-Albright syndrome); AID 624288; Potency, µM (highest dose often 76.9 µM), for inactives: top-dose activity change, negative = inhibition, actives largely listed as inhibitors; gsp-mutant cells, cAMP HTRF, 30 min; control for the full effect not named in the record; 0.4% of 340,000 active; active = falling curve of any shape with a large fitted effect; inconclusive = falling curve, mostly with a smaller effect; inactive = flat or rising curve; cell line not stated here;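 note: intracellular cAMP measured with PDE inhibitor Ro 20-1724 present during compound exposure; potency is the fitted concentration of half-maximal effect; % is set by controls: 0 for no effect and ±100 for the full control effect; nearly all actives have a fitted effect of over 65% in size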
#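 HTRF cAMP read-out (cAMP-d2 plus anti-cAMP antibody-K in lysis buffer, 30 min RT). Before lysis, cells are exposed to compounds with […] for 30 min at 37C in DPBS containing Ca/Mg, BSA and Tween 20.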
# D2 PAM: human D2 receptor positive allosteric modulation | DiscoveRx D2 beta-arrestin cells, luminescence, 90 min; 100% = 57 uM dopamine signal | potentiation, % (concentration not given with the values) | 0.23% of 360,000 active | AID 624464; active = potentiation of 50% or more; inconclusive = 30% to 50%; inactive = 30% or less;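 note: compound concentration not given in the record; tested on top of an EC20 dose of dopamine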
# Target sequence (P14416 whole entry, looked up): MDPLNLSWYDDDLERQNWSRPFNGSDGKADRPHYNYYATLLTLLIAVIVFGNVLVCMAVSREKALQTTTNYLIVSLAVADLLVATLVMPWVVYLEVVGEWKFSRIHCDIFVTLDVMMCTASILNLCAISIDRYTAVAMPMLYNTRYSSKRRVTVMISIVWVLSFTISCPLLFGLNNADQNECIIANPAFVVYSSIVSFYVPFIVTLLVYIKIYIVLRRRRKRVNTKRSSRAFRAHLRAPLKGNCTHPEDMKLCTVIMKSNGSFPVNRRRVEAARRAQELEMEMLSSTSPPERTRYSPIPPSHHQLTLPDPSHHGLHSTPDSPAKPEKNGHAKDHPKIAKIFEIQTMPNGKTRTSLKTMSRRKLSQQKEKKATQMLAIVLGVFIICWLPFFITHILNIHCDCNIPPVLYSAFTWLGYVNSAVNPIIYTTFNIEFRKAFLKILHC
#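 PathHunter beta-arrestin assay in DiscoveRx D2 cells. Compounds were added with an EC20 of dopamine (50 nM final) for 90 min at 37 deg C. Luminescence was read 1 h after detection reagent, with 57 uM dopamine as the EC100 control.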
# gsp ag: activates gsp, the McCune-Albright syndrome mutation; gsp mutant cells, cAMP HTRF, 30 min; control for the full effect not named in the record; Potency, µM (top dose mostly 76.9 µM), without a hit: at the highest dose activation (cAMP increase), actives largely listed as activators; 0.13% of 340,000 active; AID 624287; active = well fitted activation curve with a large enough effect; inconclusive = small, poorly fitted or top-dose-only effect, or another doubt; inactive = no such curve, though single readings can be large or run the other way; cell line not stated here;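 note: phosphodiesterase inhibitor Ro 20-1724 added with compounds to block cAMP breakdown; potency is the fitted concentration of half-maximal effect; nearly all actives have a fitted effect of over 60% in size; about a fifth of the inactives were tested at one dose only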
#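 Cells in DMEM/10% FBS with G418 were pretreated with compounds in DMSO plus […] (300 uM stock) for 30 min at 37C. cAMP was measured by HTRF (cAMP-d2 plus anti-cAMP antibody-K) after 30 min at room temperature.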
# ClpP mod: qHTS Assay for Activators of ClpP. ATP-dependent Clp protease proteolytic subunit (Bacillus subtilis (strain 168)), P80244. purified B. subtilis ClpP, FRET peptide cleavage, 20 min. Potency, µM (highest dose often 57.5 µM), inactives show at the highest dose activity change, negative = active. 1.9% of 340,000 active; active = well fitted falling curve with a large enough effect; inconclusive = small, poorly fitted or top-dose-only effect; inactive = no such curve, though single readings can be large or run the other way; note: potency is the fitted concentration of half-maximal effect; the source files actives as falling curves though it sought activators and does not explain the sign; nearly all actives have a fitted effect of over 65% in size; many hits overshoot -100%
# Target sequence (P80244 whole entry, looked up): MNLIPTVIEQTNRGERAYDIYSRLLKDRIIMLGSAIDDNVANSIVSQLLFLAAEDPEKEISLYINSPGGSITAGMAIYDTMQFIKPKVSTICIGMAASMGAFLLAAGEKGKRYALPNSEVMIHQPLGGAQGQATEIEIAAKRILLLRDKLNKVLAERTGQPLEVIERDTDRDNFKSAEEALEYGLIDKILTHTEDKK
#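 Buffer: 100 mM Tris/HCl pH8, 100 mM KCl, 0.05% low protease BSA, 2.5% glycerol, 0.01% Tween-20. ClpP 10 microg/mL final; 20 min RT; delta FRET normalized to ADEP and DMSO controls.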
# Active calls of the source: *; ? = inconclusive; · = no result given; & = joins results of further samples; [ ] = dose if it differs, or a comment.
Structure,D2 PAM,Menin-MLL FL inh,Sfp inh,TRPV1 potentiator,gsp antagonist,ClpP mod,gsp ag
CCOC(=O)C1=C(c2ccccc2)N=C2SCC(=O)N2C1c1ccc(O)c(OC)c1 (stereo unspecified),-12,6.5,18%,15,-6%,-0.9%,?
CCOC(=O)C1CCN(C(=O)COc2ccc(S(=O)(=O)NC(C)C)cc2Cl)CC1,-26,-1.1,4%,8,-2%,-0.4%,17%
Cc1ccc(C(=O)Nc2ccc(NC(=O)c3ccccc3Cl)c(C)c2)cc1,-7,·,·,·,·,120%,-24%
O=C(Nc1ccc2cn[nH]c2c1)c1ccccc1F,-13,0.7,2%,-9,3%,1.2%,-10%
O=C1CCCC2=C1C(c1cccs1)Nc1ccccc1N2 (stereo unspecified),-6,4.9,-2%,-6,3%,20µM*,2%
CN(CC(=O)Nc1ccc(Cl)cc1)CC(=O)Nc1sc2c(c1C(N)=O)CCC2,-9,·,·,·,·,-8.7%,-31%[inhibitor]
COC(=O)CCC(=O)OC1(C)C(=O)C=C2C=C(C3CC3)N(CCc3ccccn3)C=C2C1=O (stereo unspecified),4,-8.6[11.7 µM],-11%&11%,-17,-2%,-1.3%,23%
COc1ccc(CCn2nnc3ccccc3c2=O)cc1OC,2,·,·,·,·,-1.3%,-36%
CC1CC(C)CN(CCCNC(=O)c2ccc(CS(=O)(=O)Cc3ccccc3F)o2)C1 (stereo unspecified),-5,-0.3,17%,8,-5%,0.8%,0%
CCN(CC(=O)Nc1ccc(OC)cc1)C(=O)c1ccc2c(c1)NC(=O)C(C)S2 (stereo unspecified),-15,·,·,-8,3%,0.4%,5%
CCOc1ccc(-n2c(-c3ccccc3)nnc2-c2ccccc2)cc1,-32,2.1,-1%,-7,-7%,-0.3%,-26%[15.4 µM]
O=C(Nc1cc([N+](=O)[O-])ccc1N1CCOCC1)c1ccco1,-1,-2.4,4%,-4,7%,-1.0%,-9%[15.4 µM]
CCCCn1c(SCC(=O)O)nc2ccccc21,-9,1.2,12%,4,-12%,-1.5%,17%
CCC(CC)C(=O)Nc1nnc(CCc2ccccc2)s1,-1,1.1,0%,?,9%,-2.6%,-5%[15.4 µM]
Cc1ccc(C2(C)NC(=O)N(CC(=O)N(Cc3ccccc3)C(C)(C)C)C2=O)cc1 (stereo unspecified),0,0.5,-6%,-5,-3%,·,3%[15.4 µM]
CN1CCn2cnc(C(=O)Nc3ccc(Cl)cc3)c2C1=O,4,·,·,·,·,1.5%,-38%[inhibitor]
COCCCN1CN(S(=O)(=O)c2ccc(Cl)cc2)c2nc3ccccc3nc21,-4,4.4,5%,-4,-3%,?,25%
Cc1cccc(CC(C)NC(=O)c2cc(COc3ccc(F)cc3F)on2)n1 (stereo unspecified),-18,3.5,7%,-14,1%,-1.7%,11%
COc1ccc(NC(=O)Nc2ccc(F)cc2)cn1,-6,-21,-1%,-22,-2%,-1.3%,-3%
C=CCN(C(=O)Cn1nnc2ccccc21)C(C(=O)NCCOC)c1ccc(OC)cc1OC (stereo unspecified),-9,-0.7,-4%,13,-22%,-1.5%,-2%
Cc1ccc(C)c(CSCc2nc3ccccc3[nH]2)c1,-12,1.9,6%,-10,-8%,-18%,36%
CCN(Cc1ccccc1)S(=O)(=O)c1ccc(C(=O)N(CCCN(C)C)c2nc3c(C)c(C)ccc3s2)cc1,7,·,·,-2,7%,·,-4%[15.4 µM]
COc1ccc(CN(C)C(=O)c2cnc(C)cn2)c(OC)c1OC,-1,0.2,16%,-2,-2%,0.1%,1%
Cc1ccccc1NCN1C(=O)C2C3C=CC(C3)C2C1=O (stereo unspecified),-1,-0.2,16%,8,5%,-0.8%,18%
CCOc1ccc(-c2cc(CCCC(=O)NCCCOC)no2)cc1,-4,5.8,3%,3,-16%,-1.5%,4%
COc1cccc(C(=O)NNC(=O)C(=O)Nc2cccc(Cl)c2C)c1,-3,1.5,21%,0,1%,·,4%
CCOC(=O)C(NCc1ccco1)(NC(=O)c1ccccc1)C(F)(F)F (stereo unspecified),-1,-1.2,12%,21,5%,2.7%,-3%
CCOC(=O)c1c2c(n(Cc3ccccc3)c1C)C(=O)C(=O)c1ccccc1-2,?,·,·,·,-10%,0.8%,11%
COc1ccc(C(=O)C2CCCN(C(=O)c3ccc4nccnc4c3)C2)c(C)c1 (stereo unspecified),-3,·,16%,-7,-6%,2.3%,?
COC1OC2COC(c3ccccc3)OC2C(OC(C)=O)C1OC(C)=O (stereo unspecified),-8,·,·,·,1%,?,-45%[inhibitor]
C#CCOc1ccc(CNC[C@H]2O[C@@H](n3cnc4c(N)ncnc43)[C@H](O)[C@@H]2O)cc1,-3,·,·,·,10%,3.1%,·
O=C1c2ccccc2C(O)N1Cc1ccccc1 (stereo unspecified),1,3.5,-11%,8,-4%,-0.6%,?
CC(C)Cc1nnc(NC(=O)c2ccc3c(c2)OCCO3)s1,-1,·,·,-8,-11%,-9.3%,-20%
Cc1cc(C)cc(NC(=O)Nc2ccc(N3CCCCC3)cc2)c1,-5,1.2,50µM*,20,-6%,·,0%
CCN(CC(=O)NCc1ccc(F)cc1)C(=O)c1cccc(S(=O)(=O)N(C)c2ccc(OC)cc2)c1,3,·,·,·,-16%,1.6%,12%
O=C(NCc1ccccc1)C(=O)c1cn(CC(=O)N2CCOCC2)c2ccccc12,-7,·,19%,-9,-5%,-3.2%,1%
CN(CC(=O)N1CC=C(c2ccccc2)CC1)S(=O)(=O)c1ccc2c(c1)c(=O)n(C)c(=O)n2C,-19,2.1,-14%,-1,-9%,-28%,12%
COc1ccccc1NC(CC(=O)c1ccccc1)C(=O)OCC(=O)c1ccc(F)cc1 (stereo unspecified),-19,0.1,?,2,4%,-2.1%,17%
O=c1cnn(Cc2c(Cl)cccc2Cl)c2ccccc12,1,3.2,16%,-15,-1%,·,8%
O=C(Nc1ccc(-c2csc(Nc3ccc(Cl)cc3)n2)cc1)c1ccccc1,-12,·,·,·,5%,-7.0%,21%
Cc1ccc(CS(=O)(=O)Cc2ccc(C(=O)NCCCN3CC(C)CC(C)C3)o2)cc1 (stereo unspecified),-17,-7.1,2%,3,15%,-1.3%,28%
COc1ccc(CCN(Cc2nc3ccccc3c(=O)[nH]2)C(=O)c2ccco2)cc1,-2,8.4,-1%,23,-18%,-2.6%,?
CN1CCN(C2=NCCO2)CC1,-4,-2.9,17%,-4,8%,·,14%[15.4 µM]
CCOc1ccccc1C(=O)NCC(=O)NCCc1ccc(S(N)(=O)=O)cc1,0,-1.2,-11%,16,·,·,-12%[15.4 µM]
CC(NC(=O)CCc1nnc(-c2ccc(-c3ccccc3)cc2)o1)c1nccs1 (stereo unspecified),-4,-0.5,-6%,-1,-14%,·,-22%
O=C(Nc1ccccc1Cl)C1CCCN(S(=O)(=O)c2ccc(F)cc2)C1 (stereo unspecified),-2,1.8,6%,7,-18%,-2.2%,15%
Cc1cc2cc(CN3C(=O)c4ccccc4C3=O)ccc2[nH]1,-5,-6.3,-15%,-7,5%,-1.8%,?
CCN(CC)CCNC(=S)Nc1ccc2nc(N3CCOCC3)cc(C)c2c1,-11,4.7,-5%,-1,4%,3.7%,-13%
Cc1cccc(OCC(=O)Nc2ccc3c(c2)nc(CN2CCCCC2)n3C)c1,-22,0.3,-1%,4,3%,-9.5%,9%[15.4 µM]
CC(=O)c1c(C)n(-c2ccccc2)c2ccc(OCC(O)CN3CCOCC3)cc12 (stereo unspecified),-16,4.3,11%,-3,-5%,-1.8%,-40%[inhibitor]
O=C(Nc1nc2ccccc2s1)c1ccc([N+](=O)[O-])o1,-9,1.7,10%,-27,-2%,1.9%,18%
O=S(=O)(c1ccc(Br)s1)N1CCC2(CC1)OCCO2,-4,·,9%,-31,-9%,-5.4%,9%
CCOC(=O)C1=C(CS(=O)(=O)c2ccc(C)cc2)NC(=O)NC1c1ccc(O)c(OC)c1 (stereo unspecified),-4,-0.1,16%,8,2%,2.0%,38%
CC(=O)N1c2cc3ccccc3cc2N(C(C)=O)c2cc3ccccc3cc21,0,·,·,·,7%,·,-45%[inhibitor]
Cc1cc(C)nc(NN=C(c2ccccc2)c2ccccc2)n1,3,2.6,14%,-3,-12%,-0.9%,-54%[inhibitor]
N#C/C(=C\c1c(F)cccc1Cl)S(=O)(=O)c1ccccn1,1,3.4,11%,9,7%,-1.5%,-1%[15.4 µM]
COc1ccc(S(=O)(=O)N2CCOCC2)cc1NC(=O)c1ccccc1C,-2,·,6%,6,11%,-1.3%,?
COc1ccc(C)cc1NC(=O)CCCN1C(=O)C(c2ccccc2)Oc2cccnc21 (stereo unspecified),-36,·,0%,-8,-17%,-1.1%,-45%[inhibitor]
O=C(Nc1ccc(C(=O)N2CCCCC2)cc1)C1CCCC1,4,·,·,·,8%,1.6%,·
CCOC(=O)C1CCN(C(=O)COc2ccc(S(=O)(=O)N3CCOCC3)cc2C)CC1,-7,0.0,7%,10,2%,·,-21%

# Further compounds follow.
Structure,D2 PAM,Menin-MLL FL inh,Sfp inh,TRPV1 potentiator,gsp antagonist,ClpP mod,gsp ag
CC(=O)C1=C(O)C(=O)N(c2ccc(O)cc2)C1c1ccccc1[N+](=O)[O-] (stereo unspecified),10,1.1,35µM*,24,5%,2.8%,-9%
O=C(NCc1ccc2c(c1)OCO2)c1cc(-c2ccncc2)nc2ccccc12,-4,-1.8,5%,8,-10%,·,20%[15.4 µM]
COCCNC(=S)NC(=O)c1ccc(C(C)(C)C)cc1,-20,1.0,-6%,-8,2%,0.6%,-7%
ClC(Cl)(c1nnnn1-c1ccccc1)c1nnnn1-c1ccccc1,-41,2.9,2.8µM*,14,?,-0.2%,-5%
O=C(COC(=O)c1cc(-c2ccccc2)nc2ccccc12)NCC1CCCO1 (stereo unspecified),-7,-6.7,11%,-16,16%,-1.5%,8%[15.4 µM]
